Mtb growth – M. tuberculosis H37Rv growth inhibitors, H37Rv strain (AID 1626). M. tuberculosis H37Rv growth inhibition; higher % means a stronger effect. inhibition, % at 10 µM; hits with a dose series show IC50 in µM. 220,000 compounds, 0.95% hits;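 active = confirmed in a dose series; inconclusive = inhibition above 80% but not taken into the dose series; inactive = below 80% or under 30% at every dose of the series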;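 also: bacteria incubated seven days before Alamar blue readout; 0% = bacteria only wells and 100% = bacteria with antibiotic wells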
Arbovirus anti – antivirals against arbovirus infection; arbovirus infection cell-based antiviral screen; inhibition, % at 10 µM; 200,000 compounds, 0.37% hits;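 active = inhibition from about 30%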;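 also: bluetongue infection of BSR cells; cell survival read as ATP light after 72 h; 0% = infected wells without compound and 100% = uninfected wells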
RecA intein inh – Mtb RecA intein splicing inhibition; P9WHJ3; cell-free RecA intein splicing, fluorescence; inhibition, %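 (about 9 µM by stock and volumes)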; 290,000 compounds, 0.75% hits; in the data active = inhibition above about 30%; inconclusive = no clear call, values can overlap the other calls;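 also: 0% = vehicle wells and 100% = reference inhibitor control wells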
Target sequence (P9WHJ3 whole entry, looked up): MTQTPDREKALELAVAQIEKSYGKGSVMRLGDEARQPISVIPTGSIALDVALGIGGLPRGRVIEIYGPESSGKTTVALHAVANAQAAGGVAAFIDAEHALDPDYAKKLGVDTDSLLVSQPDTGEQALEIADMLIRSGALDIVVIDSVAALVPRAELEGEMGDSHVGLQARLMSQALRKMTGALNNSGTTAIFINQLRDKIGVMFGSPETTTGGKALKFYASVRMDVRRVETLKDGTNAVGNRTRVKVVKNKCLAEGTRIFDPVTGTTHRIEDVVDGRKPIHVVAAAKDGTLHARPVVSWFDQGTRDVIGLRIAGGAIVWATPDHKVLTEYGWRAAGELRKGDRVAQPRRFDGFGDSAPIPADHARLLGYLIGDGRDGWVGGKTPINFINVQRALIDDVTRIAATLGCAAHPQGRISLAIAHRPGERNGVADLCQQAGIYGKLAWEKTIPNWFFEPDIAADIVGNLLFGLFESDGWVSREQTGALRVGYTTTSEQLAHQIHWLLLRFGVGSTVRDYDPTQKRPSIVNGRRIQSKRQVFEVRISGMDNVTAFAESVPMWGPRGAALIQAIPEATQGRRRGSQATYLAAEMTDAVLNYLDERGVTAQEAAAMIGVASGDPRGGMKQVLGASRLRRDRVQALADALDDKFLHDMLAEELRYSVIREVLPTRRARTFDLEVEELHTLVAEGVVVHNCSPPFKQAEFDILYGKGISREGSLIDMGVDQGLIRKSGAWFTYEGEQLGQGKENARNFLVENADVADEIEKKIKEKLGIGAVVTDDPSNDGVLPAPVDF
YopH PTP inh – inhibitors of Yersinia enterocolitica YopH tyrosine phosphatase; fluorescence Ex485/Em525; inhibition, %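 (about 10 µM by stock and volumes)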; 140,000 compounds, 0.16% hits; AID 898;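 active = inhibition of 50% or more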;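 also: controls were vehicle for no effect and minimum signal wells for full effect; inactives centre near -20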
Mtb bLac sens – beta-lactam sensitization of Mtb H37Rv. inhibition, % at 25 µM. 330,000 compounds, 0.27% hits. M. tuberculosis H37Rv growth with meropenem, percent inhibition; hits of this screen are not shown here;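 active = about 74% or more and at least 40 points above the plate without the antibiotic, then above 30% in a dose series; inconclusive = first-round hits that could not be retested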;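 also: growth measured after seven days incubation then overnight dye step; 0% = bacteria only wells and 100% = bacteria with antibiotic; twin plates without the antibiotic show which effects depend on it; some results filed as inactive read as strong as hits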
Arbovirus anti repeat – also measured in Arbovirus anti; calls as there; inhibition, %; measured here: 10K subset replicate screen; many hits read low in the repeat;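 first of two repeat runs on a subset; 0% = infected and 100% = uninfected wells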
An asterisk follows results filed as active; ? = inconclusive; . = not tested or not shown. An excerpt; rates above refer to the full screens.

SMILES	Mtb growth	Arbovirus anti	RecA intein inh	YopH PTP inh	Mtb bLac sens	others
COc1ccccc1NC(=O)CN(Cc1ccco1)C(=O)c1cc2ccccc2o1	2%	-8	3.5	.	5
CC(Oc1ccccc1)C(=O)N1CCC2(CC1)CC(=O)c1ccccc1O2 (stereo unspecified)	.	.	2.4	.	9
CCOC(=O)C1=C(C)N=c2s/c(=C\c3ccc(C(=O)O)cc3)c(=O)n2C1c1ccc(OC)cc1OC (stereo unspecified)	.	.	5.2	.	4
CCc1ccc(NC(=O)CSc2nc3ncc(Br)cc3[nH]2)cc1	.	.	-0.1	.	46
O=C(CSc1nnc(CNC(=O)c2ccccc2)o1)c1ccccc1	.	.	1.7	.	?
COc1ccc(N2CCc3c(C)nc(SC)nc32)cc1	11%	-1	1.1	.	66
CCOC(=O)c1ccc(NS(=O)C23CC4CC(CC(C4)C2)C3)cc1 (stereo unspecified)	7.6µM*	-14	7.0	-19	99
CCCCCCCC(=O)NC(Nc1ccccc1OC)C(Cl)(Cl)Cl (stereo unspecified)	-4%	0	-0.1	-12	10
O=C(CCNC(=O)OCc1ccccc1)NC1CCCCCC1	1%	-16	-2.0	-7	-5
O=C(Nc1ccc(N2CCCC2)cc1)c1cc([N+](=O)[O-])ccc1N1CCOCC1	.	.	-3.5	.	-1
Cc1ccc(/C(O)=C2/C(=O)C(=O)N(CCN3CCOCC3)C2c2cccnc2)cc1 (stereo unspecified)	.	4	-3.3	-26	9	Arbovirus anti repeat=2
Cn1c(=O)c2c(ncn2CCc2ccccc2)n(C)c1=O	2%	-3	1.7	.	-4
COc1ccc(/C=N/NC(=O)c2nc(-c3ccccc3)cc(-c3ccccc3)n2)cc1O	5%	-30	3.2	-23	-3
Cc1ccc(C(=O)CCCn2nnc(-c3cccnc3)n2)cc1C	-2%	12	-0.6	-18	1
O=C(COc1ccc(F)cc1)N1CCC(Cc2ccccc2)CC1	.	.	4.3	.	-2
CCOC(=O)/C(C#N)=N/Nc1ccccc1C(=O)O	6%	.	1.9	.	-5
C[C@@H](C(=O)NCCc1c[nH]c2ccccc12)[C@H]1C[C@]1(C)[C@H](NC(=O)OCc1ccccc1)c1ccccc1	3%	-20	15	-14	22
O=C(CN1CCC(C(=O)c2ccc(F)cc2)CC1)NCc1ccccc1F	.	.	4.8	.	-8
N#C[C@@H]1[C@@H]2C(=O)N(c3ccc4c(c3)OCCO4)C(=O)[C@@H]2C2c3ccccc3C=CN21 (stereo partly specified)	-5%	2	-0.1	-9	3
Cc1c(C(=O)N2CCC(C)CC2)sc2ncnc(N3CCN(c4ccccc4)CC3)c12	.	-3	-0.2	-38	.
CCN(CC)C(=O)c1ccc(-c2nnc(Nc3ccc(O)cc3)c3ccccc23)cc1	.	.	11	.	-6
CN(C(=O)OCc1ccccc1)C(CC(N)=O)C(=O)O (stereo unspecified)	0%	3	-1.9	-15	-1
CCn1c(P(C)(=O)O)nc2ccccc21	4%	0	0.9	-17	4
CC(=O)c1c(-c2ccccc2)c2cc([N+](=O)[O-])ccc2[nH]c1=O	.	.	9.0	.	3
C/C(=N\N)c1c(-c2ccccc2)c2cc(C)ccc2[nH]c1=O	-3%	.	-0.6	.	-5

The last 6 records of the section before lead into the next.
SMILES	Mtb growth	Arbovirus anti	RecA intein inh	YopH PTP inh	Mtb bLac sens	others
Cc1c(C(=O)N2CCC(C)CC2)sc2ncnc(N3CCN(c4ccccc4)CC3)c12	.	-3	-0.2	-38	.
CCN(CC)C(=O)c1ccc(-c2nnc(Nc3ccc(O)cc3)c3ccccc23)cc1	.	.	11	.	-6
CN(C(=O)OCc1ccccc1)C(CC(N)=O)C(=O)O (stereo unspecified)	0%	3	-1.9	-15	-1
CCn1c(P(C)(=O)O)nc2ccccc21	4%	0	0.9	-17	4
CC(=O)c1c(-c2ccccc2)c2cc([N+](=O)[O-])ccc2[nH]c1=O	.	.	9.0	.	3
C/C(=N\N)c1c(-c2ccccc2)c2cc(C)ccc2[nH]c1=O	-3%	.	-0.6	.	-5
O=C(CCNc1ccccc1)c1cccc([N+](=O)[O-])c1	.	-7	-0.5	1	.
COc1ccc(-n2nc([N+](=O)[O-])c(=NCc3ccco3)n2O)cc1	-3%	-11	-0.7	.	2
O=C(NCc1ccco1)C1CCCCC1	-7%	-7	-0.7	.	-5
O=C(Nc1ccccc1C(F)(F)F)c1ccc(CN2CCC(Cc3ccccc3)CC2)cc1	17%	-14	1.5	-14	8
O=C(CSc1nc2ccccc2[nH]1)Nc1nc(-c2cccc(Br)c2)cs1	10%	10	7.2	17	13
COc1ccc(/C=N/Nc2nc(C)cc(=O)[nH]2)cc1OC	.	.	-1.3	.	-9
CC1CCN(c2nc3c(N)ncnc3n2[C@@H]2O[C@H](CO)[C@@H](O)[C@H]2O)CC1	.	.	-2.0	.	-6
Cc1ccccc1OCc1nc(-c2cccnc2)no1	8%	-9	0.6	.	10
COc1ccc(C(=O)Nc2cccc(S(C)(=O)=O)c2)cc1	-4%	1	2.8	.	0
Cc1ccc(C(=O)CCC2CCCC2=O)cc1 (stereo unspecified)	3%	8	-2.0	-28	16
O=C1NC(c2cccs2)Nc2ccccc21 (stereo unspecified)	9%	1	.	-19	-8
O=[N+]([O-])c1cccc(/C=N/Nc2nc(C(Cl)(Cl)Cl)nc3ccccc23)c1	6%	5	-4.2	-23	2
O=C(CNC(=O)C1COc2ccccc2O1)N/N=C/c1ccc([N+](=O)[O-])cc1 (stereo unspecified)	.	.	-0.5	.	-2
COc1cc(CN2CCNC(=O)C2CC(=O)N(C)Cc2ncc[nH]2)cc(OC)c1 (stereo unspecified)	-7%	-4	-2.8	.	-11
CCOC(=O)c1ccc(Oc2nc(NC(C)(C)C)nc(N(C)C)n2)cc1	26%	-4	12	13	98
CC(C)(C)OC(=O)N1CCC(C(=O)NCC2CCCO2)CC1 (stereo unspecified)	.	.	-0.7	.	-1
Cc1cc(C)cc(OCCNS(=O)(=O)c2cccs2)c1	3%	-9	0.2	.	-12
COc1cccc(NC(=O)C2CCN(c3ncccn3)CC2)c1	-8%	7	3.9	0	-9
CCOC(=O)Cc1nnc(NC(=O)C2CCCCC2)s1	-6%	2	7.4	.	1
CC(C)c1ccc(NC(=O)N2CCOCC2)cc1	.	.	-0.5	.	-3
O=c1c(N2CCOCC2)coc2ccccc12	-1%	-3	-7.2	.	-4
O=C(CNS(=O)(=O)c1ccccc1)Nc1ccc(F)cc1F	.	.	0.0	.	-8
CCc1cccc2c(=O)c(C(=O)N3CCOCC3)c[nH]c12	2%	12	-2.4	-13	97
CCOCCCNS(=O)(=O)c1ccc(Br)cc1	3%	0	-0.2	-19	1
CCCn1c(=S)[nH]c2cc(OC)c(OC)cc2c1=O	-4%	-1	-7.9	-15	-2
The results go on:
SMILES	Mtb growth	Arbovirus anti	RecA intein inh	YopH PTP inh	Mtb bLac sens	others
O=[N+]([O-])c1ccc2c(c1)nc1n2CCN(C2CCCCC2)C1	5%	3	4.9	.	-3
O=C(CSc1ccccc1)NCC1(N2CCCCC2)CCCCC1	.	.	3.0	.	-19
Cc1cc(NC(=O)C2CCCCC2)ccc1NC(=O)c1ccccc1Cl	-4%	-14	0.1	-14	3
CC(=O)NC1CCCc2c1cnn2-c1ccc(C(C)(C)C)cc1 (stereo unspecified)	.	.	1.6	.	-1
CCCC1(CCC)NC(=O)NC1=O	-2%	5	1.0	-29	-4
O=C(c1cc(COc2ccc(F)cc2F)on1)N1CCOCC1	.	.	1.1	.	4
CSc1nc(NCCCN(C)C)c2c3c(sc2n1)CN(C)CC3	.	.	-18	.	3
O=C(NC1CCCCCC1)c1ccc(Br)o1	.	.	0.3	.	0
Cc1ccc(-c2nnn(CC(=O)N(CC3CCCO3)C(C(=O)NC3CCCC3)c3ccc(F)cc3)n2)o1 (stereo unspecified)	-8%	3	-2.1	-19	-2
COC(=O)C1=C(NC(=O)COc2ccc(Cl)cc2Cl)CCS1	14%	14	2.0	-17	-8
N/C(=N\OC(=O)c1ccc(Cl)cc1[N+](=O)[O-])c1cccnc1	6%	.	-4.4	.	12
O=C(OCc1nc2ccccc2[nH]1)C12CC3CC(CC(C3)C1)C2	3%	-1	4.6	2	2
Cc1ccccc1-n1c(Cc2cccs2)n[nH]c1=S	-2%	0	2.4	0	0
Cc1ccc2nc(-c3ccccc3)cc(C(=O)N3CC(C)OC(C)C3)c2c1 (stereo unspecified)	.	.	0.5	.	1
CC(C)(C)NC(=S)NNC(=O)c1cccc(Br)c1	-3%	6	-2.0	.	-6
Cc1c(Cl)cccc1NC(=S)NCc1ccccc1Cl	4%	-6	12	-38	8
CCCc1ccc(Oc2cc(N3CCOCC3)nc(-c3ccccc3)n2)cc1	9%	.	-2.0	-22	?
CCCCOc1ccc(C(=O)Oc2ccc(C)nc2)cc1	38%	5	.	6	99
CC(Cc1ccccc1)N/C=C1/CC(=O)NC1=O (stereo unspecified)	-6%	-3	3.6	-23	15	Arbovirus anti repeat=2
O=C1NC(c2ccccc2Br)=N/C1=C\c1ccco1	-1%	.	25	.	-10
Cc1sc2ncn(C(C)C(=O)OC3CCCCC3)c(=O)c2c1C (stereo unspecified)	?	2	2.1	-25	99
COC(=O)c1ccc(-c2ccc(/C=N/NC(=O)CC3(C)OCCCO3)o2)cc1	-1%	-3	-3.6	.	10
CS(=O)(=O)N(CC(=O)N1CCC(C(N)=O)CC1)c1ccc(Oc2ccccc2)cc1	-3%	-2	0.3	-28	-12
Cc1cc(C)n2nc(C(=O)Nc3c(C)nn(Cc4ccc(F)cc4)c3C)cc2n1	7%	-5	2.2	.	-6
CN(C)c1ccc(C(=O)c2ccc(O)cc2O)cc1	3%	-6	7.0	-4	-1
(list continues)
SMILES	Mtb growth	Arbovirus anti	RecA intein inh	YopH PTP inh	Mtb bLac sens	others
Cc1ccc(CSCCNC(=O)c2ccc(Cl)c(S(=O)(=O)N3CCOCC3)c2)cc1	-2%	-25	3.4	-15	2
O=C(C1CCC1)N1CCN(c2ccc(Cl)cc2)CC1	.	.	1.9	.	-1
CSCCC(NC(=O)c1ccc(C(C)(C)C)cc1)C(=O)O (stereo unspecified)	1%	6	1.1	.	-4
COC(=O)CSc1nc(C)c(C)c(C)c1C(N)=O	-8%	9	-8.5	.	-6
CCOc1cccc(C(=O)Nc2ccc(N3CCN(S(C)(=O)=O)CC3)cc2)c1	-1%	5	-1.8	-50	-15
CCC(C)c1ccccc1NC(=O)COC(=O)CCc1cc(OC)c(OC)c(OC)c1 (stereo unspecified)	1%	3	1.9	-34	11
Cn1c(SCc2ccc(Br)cc2)nc2ccccc2c1=O	.	.	1.7	.	7
O=C(Nc1ccc(Oc2ccccc2)nc1)C1CCN(Cc2ccco2)CC1	.	.	0.1	.	-6
CC(=O)c1cccc(NC(=O)c2ccc(NC(=O)CC3SC(N4CCCCC4)=NC3=O)cc2)c1 (stereo unspecified)	.	.	0.3	.	-3
CCCN(CCC)C(=O)CSc1nc2n[nH]c(C)c2c(=N)n1-c1ccc(OCC)cc1	15%	6	0.8	-36	6
O=C1CCCN1CCCNc1ccc2nnc(CCC(=O)N3CCN(c4ccc(F)cc4)CC3)n2n1	.	.	0.7	.	-2
CCOc1ccccc1C(=O)NCC(=O)Nc1ccc(-c2ccccc2)cc1	.	.	-2.0	.	47
CCCCN(CCCC)S(=O)(=O)c1ccc(C(=O)Nc2nnc(COC)o2)cc1	-14%	-20	0.5	-45	-2
NC(=O)c1c(NC(=O)COC(=O)CSc2nnc(-c3ccc(Cl)cc3)o2)sc2c1CCC2	-1%	-3	.	-59	-2
O=C(CCN=C1NS(=O)(=O)c2ccccc21)OCc1nnc(-c2ccccc2)o1	.	.	-1.3	.	-4
CCOC(=O)/C(=C/C=C1\Sc2ccccc2N1CC)C(C)=O	4%	-8	-4.4	-5	1
CNC(=S)N/N=C/c1ccc(N(C)C)cc1	4%	.	-4.6	.	-4
COc1ccccc1-c1cc(C(=O)NCc2ccc(F)cc2)no1	-5%	-4	0.6	-25	.
CCC(C)[C@@H](NC(=O)OC(C)(C)C)c1nnc(S(=O)(=O)Cc2cccc(C)c2)o1 (stereo partly specified)	5%	-35	37*	-26	.
CC(=O)Nc1ccc2c(c1)CCCN2C(=O)c1ccccc1	3%	4	-0.6	-10	-8
Cc1cccc(CCNS(=O)(=O)c2cnc[nH]2)c1	-6%	5	0.8	-9	-2
CC(C)c1onc(C(=O)N2CCN(c3ccc(F)cc3)CC2)c1[N+](=O)[O-]	.	.	-6.0	.	1
COC(=O)CNC(=O)C12CC3(C)CC(C)(CC(C)(C3)C1)C2	-12%	1	1.3	-32	-3

Of the compounds above, these contain a cyano group:
SMILES	Mtb growth	Arbovirus anti	RecA intein inh	YopH PTP inh	Mtb bLac sens	others
CCOC(=O)/C(C#N)=N/Nc1ccccc1C(=O)O	6%	.	1.9	.	-5
N#C[C@@H]1[C@@H]2C(=O)N(c3ccc4c(c3)OCCO4)C(=O)[C@@H]2C2c3ccccc3C=CN21 (stereo partly specified)	-5%	2	-0.1	-9	3

Source: PubChem BioAssay
